BJeLR viab HTS = lowers viability of BJeLR cells. BJeLR fibroblasts viability, CellTiterGlo ATP luminescence, 48 h; HRASV12, hTERT and SV40 LT/ST transformed. viability loss activity score, % (test concentration not listed). 30,000 tested, 0.64% active; in the data active = viability loss activity score above about 50%; about a fifth of its hits are not listed in these tables;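 also: higher score means fewer live cells and less ATP luminescence; stock transfer was 50 or 100 nL into about 30 µL; 0% = vehicle wells and 100% = a reference killing control; one replicate is shown; the record names a cut of 85%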
A1 inh = blocks A1 activity | MEF A1-2A-BIM cells, caspase-Glo luminescence, 3 h; percent of clofoctol signal, DMSO as zero | caspase activation, % (test concentration not listed) | 21,000 tested, 0.51% active | AID 2241;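 active = most replicate scores above 10, or exactly half above 10 with mean activity above 10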;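 also: effector caspase 3 and 7 activity cleaving a DEVD luciferin substrate; 50 nL library stock added to about 30 µL; numbers are from one replicate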
* = called active by the depositor; . = not tested or not shown. Some of the compounds tested; the hit share may differ from the screen's.

SMILES | BJeLR viab HTS | A1 inh
C[C@@H]1CN([C@H](C)CO)C(=O)c2cccc(NC(=O)NC3CCCCC3)c2O[C@H]1CN(C)S(=O)(=O)c1ccc(Cl)cc1 | -13.4 | .
CCCCCCCCCCCCC/C=C/[C@@H](O)[C@H](CO)NC(C)=O | -3.0 | 1.2
Cc1ccc(S(=O)(=O)N(C)C[C@H]2Oc3ccc(NC(=O)c4ccncc4)cc3C(=O)N([C@@H](C)CO)C[C@H]2C)cc1 | -2.7 | 0.8
C[C@H](CO)N1C[C@H](C)[C@@H](CN(C)C(=O)Nc2ccc(C(F)(F)F)cc2)Oc2c(NC(=O)C3CC3)cccc2C1=O | -3.8 | .
COc1ccc(S(=O)(=O)N(CCc2ccccc2)CC(=O)Nc2cccc(Cl)c2)cc1OC | -1.8 | -0.7
O=C(Nc1ccccc1)Nc1ccccc1C(=O)N1CCOCC1 | 4.5 | 0.6
CN(C)/C(=N\S(=O)(=O)c1ccc(F)cc1)c1ccccc1 | 2.7 | 0.1
Nc1cc(=O)n(Cc2ccccc2)c(=O)n1-c1ccccc1 | 2.6 | 0.2
CCn1c(-c2ccccc2Cl)nc2ccccc21 | 9.4 | 0.1
CNC[C@H]1Oc2c(NS(=O)(=O)c3ccc(OC)cc3)cccc2C(=O)N([C@@H](C)CO)C[C@H]1C | -5.5 | .
COC(=O)C1=C(C)N(C)C(=S)NC1c1ccccc1 (stereo not given) | -3.3 | 0.8
Cc1ccc(-c2nn(-c3ccccc3)cc2/C=N/O)cc1 | 3.7 | 0.1
Cc1cc(C(=O)Nc2cccc3c2O[C@@H](CN(C)CC2CCCCC2)[C@@H](C)CN([C@H](C)CO)C3=O)n(C)n1 | -5.7 | .
Cc1noc(C)c1NC(=O)Nc1cccc2c1O[C@H](CN(C)CC1CCCCC1)[C@@H](C)CN([C@@H](C)CO)C2=O | 14.0 | .
Cc1cc(C(=O)Nc2cccc3c2O[C@H](CN(C)S(=O)(=O)c2ccc(F)cc2)[C@@H](C)CN([C@@H](C)CO)C3=O)n(C)n1 | 3.4 | .
C[C@H](CO)N1C[C@H](C)[C@H](CN(C)Cc2ccc3c(c2)OCO3)Oc2ccc(NS(=O)(=O)c3cccs3)cc2C1=O | -1.2 | -0.2
CCn1cc(C(=O)NCCc2ccccc2)c(=O)c2cc(S(=O)(=O)N(C)C)ccc21 | -2.7 | .
N=C1/C(=C/c2ccco2)C(=O)N=C2SC(C3CCCCC3)=NN12 | 17.8 | 0.2
C[C@H]1CN([C@@H](C)CO)C(=O)c2cc(NC(=O)Nc3cccc4ccccc34)ccc2O[C@@H]1CN(C)C(=O)Nc1ccc2c(c1)OCO2 | -4.1 | 0.3
O=C(CCCCc1ccc(O)cc1)CCc1ccc(O)cc1 | -4.2 | 0.6
C[C@H]1CN([C@@H](C)CO)C(=O)c2cc(NC(=O)CCCN(C)C)ccc2O[C@H]1CN(C)C(=O)Nc1cccc2ccccc12 | 4.8 | -0.2
Cc1cc(=O)c2c(O)cc(O)c(C)c2o1 | -0.7 | -0.2
COc1ccccc1OCc1nc(-c2ccccc2)cs1 | -0.6 | -2.6
O=C(Nc1ccccc1C(=O)N1CCCC1)C(c1ccccc1)c1ccccc1 | -0.7 | .
C[C@H](CO)N1C[C@H](C)[C@@H](CN(C)CC2CC2)Oc2c(NC(=O)Nc3ccc(F)cc3)cccc2C1=O | -4.0 | .

Complete entries from above. Values in the order: BJeLR viab HTS	A1 inh
C[C@H](CO)N1C[C@H](C)[C@H](CN(C)Cc2ccc3c(c2)OCO3)Oc2ccc(NS(=O)(=O)c3cccs3)cc2C1=O as listed: -1.2	-0.2
C[C@H](CO)N1C[C@H](C)[C@@H](CN(C)CC2CC2)Oc2c(NC(=O)Nc3ccc(F)cc3)cccc2C1=O as listed: -4.0	.

The list goes on:
SMILES | BJeLR viab HTS | A1 inh
C[C@@H]1CN([C@H](C)CO)C(=O)c2cc(NS(=O)(=O)c3ccc(Cl)cc3)ccc2O[C@@H]1CN(C)CC1CC1 | -2.8 | -0.2
Cn1c(Cn2cc(C(F)(F)F)ccc2=O)n[nH]c1=S | 1.6 | 0.6
C=CCn1c(SCC(=O)Nc2ccc(C)cc2)nnc1C1CC1 | -0.8 | 1.2
CC(C)(C)c1[nH]nc2c1C(c1ccc(OC(=O)c3ccccc3Cl)cc1)C(C#N)=C(N)O2 (stereo not given) | -0.3 | 0.5
C[C@H](CO)N1C[C@H](C)[C@H](CN(C)C(=O)Nc2ccc(F)cc2)Oc2ccc(NS(=O)(=O)c3cccs3)cc2C1=O | -0.3 | 1.0
Cc1c(C(=O)NCc2ccccc2)oc2c1C(=O)CCC2 | 1.5 | -0.2
C[C@@H]1CN([C@H](C)CO)C(=O)c2cccc(N(C)C)c2O[C@H]1CN(C)Cc1ccc(C(F)(F)F)cc1 | 5.5 | .
Cc1ccc(NC(=S)N2CCCN(c3ncc(C(F)(F)F)cc3Cl)CC2)c(C)c1 | 7.7 | .
Cc1csc2sc(C(=O)c3ccc(Cl)cc3)c(C)c12 | 4.4 | -0.8
C[C@@H]1CN([C@H](C)CO)C(=O)c2cccc(NC(=O)c3cnccn3)c2O[C@@H]1CN(C)S(=O)(=O)c1ccc(Cl)cc1 | -4.5 | .
CCOC(=O)C1C(=S)NC(N)=C(C#N)C12CCCCC2 (stereo not given) | 1.0 | 0.9
C[C@H]1CN([C@@H](C)CO)C(=O)c2cc(NC(=O)CCC(F)(F)F)ccc2O[C@H]1CN(C)Cc1ccc(C(F)(F)F)cc1 | 1.2 | -0.4
C[C@@H]1CN([C@@H](C)CO)C(=O)c2cc(NS(C)(=O)=O)ccc2O[C@@H]1CN(C)CC1CCCCC1 | -5.7 | 0.5
CCOc1ccc(NC(=O)CNS(=O)(=O)c2ccc3c(c2)C(C)(C)C(=O)N3C)cc1 | -3.9 | 0.6
COc1ccc(CN(C)C[C@H]2Oc3c(NC(=O)Nc4ccc(OC)cc4)cccc3C(=O)N([C@@H](C)CO)C[C@@H]2C)cc1 | 2.6 | .
O=C(NC1CCCC1)C1CCN(c2nc3ccccc3n3cccc23)CC1 | 0.2 | 2.7
CCOC(=O)c1c(NC(=O)Nc2ccc(Cl)c(Cl)c2)sc(C)c1C | -1.0 | -0.4
N#Cc1c(-c2cccs2)nc(SCC(=O)c2ccc(Br)cc2)[nH]c1=O | -0.2 | 0.3
CCN(C(=O)c1cccc(C(=O)N(CC)c2ccccc2)c1)c1ccccc1 | 0.5 | -0.3
Cc1ccc(-c2nc(CSCC(=O)N3CCCC3)c(C)o2)cc1 | 3.3 | .
CC(C)NC(=O)Nc1cccc2c1O[C@H](CN(C)Cc1ccc(Oc3ccccc3)cc1)[C@H](C)CN([C@H](C)CO)C2=O | -3.5 | .
C[C@@H]1CN([C@@H](C)CO)C(=O)c2cc(NC(=O)C3CCCCC3)ccc2O[C@H]1CN(C)C | 1.5 | 0.4
CCCCC1C(=O)N(c2ccccc2)N(c2ccc(O)cc2)C1=O (stereo not given) | 1.2 | -0.7
CC1CCN(C(=O)C(Cc2ccccc2)NS(=O)(=O)c2ccc3c(c2)c(=O)n(C)c(=O)n3C)CC1 (stereo not given) | 1.5 | .
CCCOC(=O)c1ccc(Nc2nc3ccccc3n3c(C)nnc23)cc1 | 3.4 | .

In a second layout: six of the compounds above
Compound	BJeLR viab HTS	A1 inh
CCN(C(=O)c1cccc(C(=O)N(CC)c2ccccc2)c1)c1ccccc1	0.5	-0.3
Cc1ccc(-c2nc(CSCC(=O)N3CCCC3)c(C)o2)cc1	3.3	.
CC(C)NC(=O)Nc1cccc2c1O[C@H](CN(C)Cc1ccc(Oc3ccccc3)cc1)[C@H](C)CN([C@H](C)CO)C2=O	-3.5	.
C[C@@H]1CN([C@@H](C)CO)C(=O)c2cc(NC(=O)C3CCCCC3)ccc2O[C@H]1CN(C)C	1.5	0.4
CCCCC1C(=O)N(c2ccccc2)N(c2ccc(O)cc2)C1=O (stereo not given)	1.2	-0.7
CC1CCN(C(=O)C(Cc2ccccc2)NS(=O)(=O)c2ccc3c(c2)c(=O)n(C)c(=O)n3C)CC1 (stereo not given)	1.5	.

The listing continues.
SMILES | BJeLR viab HTS | A1 inh
C[C@@H]1CN([C@@H](C)CO)C(=O)c2cccc(NC(=O)c3cnccn3)c2O[C@H]1CN(C)C(=O)Nc1ccc2c(c1)OCO2 | -2.2 | .
CC(C)NC(=O)N(C)C[C@H]1Oc2c(NC(=O)Nc3cccc4ccccc34)cccc2C(=O)N([C@H](C)CO)C[C@H]1C | -12.2 | .
Cc1ccc(S(=O)(=O)Nc2ccc3c(c2)COC3=O)c(C)c1 | -6.0 | .
CC1=CC(O)C2/C=C/CCC3OC3(C)C(O)CC(=O)C23C(=O)NC(CC(C)C)C13 (stereo not given) | -0.2 | 1.2
CCSc1n[nH]c(-c2c(Cl)c(CC)nn2C)n1 | 8.6 | -1.5
C[C@@H]1CN([C@@H](C)CO)C(=O)c2cc(NC(=O)CCN3CCOCC3)ccc2O[C@@H]1CN(C)S(=O)(=O)c1cccs1 | 2.8 | 0.1
C[C@@H]1CN([C@H](C)CO)C(=O)c2cccc(NS(=O)(=O)c3cn(C)cn3)c2O[C@H]1CN(C)C(=O)Nc1ccc(F)cc1 | -2.0 | .
Cc1cc2c(c(=O)n1Cc1ccccn1)C(c1ccccc1)C(C#N)=C(N)O2 (stereo not given) | -2.3 | 0.3
Cc1ccc(S(=O)(=O)N(C)C[C@H]2Oc3ccc(NC(=O)Nc4ccc5c(c4)OCO5)cc3C(=O)N([C@H](C)CO)C[C@H]2C)cc1 | 15.6 | 0.0
CC(C)NC(=O)N(C)C[C@@H]1Oc2ccc(NC(=O)Nc3ccc4c(c3)OCO4)cc2C(=O)N([C@H](C)CO)C[C@H]1C | 0.0 | -0.3
C[C@H]1CN([C@@H](C)CO)C(=O)c2cccc(NC(=O)c3cnccn3)c2O[C@H]1CN(C)Cc1ccc(C(F)(F)F)cc1 | 3.6 | .
O=C(Nc1cccc(-c2nc3ccccc3o2)c1)c1ccc(Br)cc1 | -1.7 | 14.9*
CNC(=O)CN1C(=O)c2ccccc2S1(=O)=O | -2.7 | 0.8
CCc1ccc(Oc2coc3cc(OC(C)C(=O)OC(C)C)ccc3c2=O)cc1 (stereo not given) | 2.5 | .
C[C@H](CO)N1C[C@H](C)[C@H](CN(C)S(=O)(=O)c2ccc(Cl)cc2)Oc2ccc(NC(=O)c3ccncc3)cc2C1=O | -0.1 | 0.7
N#Cc1c(-c2ccccc2)cc(-c2cccs2)nc1SCS(=O)Cc1ccccc1 (stereo not given) | -6.9 | -0.2
C[C@@H]1CN([C@H](C)CO)C(=O)c2cc(NC(=O)CCCN(C)C)ccc2O[C@H]1CN(C)C(=O)Nc1cccc2ccccc12 | -4.5 | 0.5
Cc1noc(C)c1NC(=O)Nc1ccc2c(c1)C(=O)N([C@H](C)CO)C[C@@H](C)[C@@H](CN(C)Cc1ccncc1)O2 | 1.3 | 0.4
O=C1CSC(c2ccccc2)N1c1ccc(Cl)cc1 (stereo not given) | 1.6 | 1.5
Cc1ccc(S(=O)(=O)Nc2cccc3c2O[C@H](CN(C)S(=O)(=O)c2ccc(Cl)cc2)[C@H](C)CN([C@H](C)CO)C3=O)cc1 | 1.7 | .
COc1ccc(-c2cc(C(=O)NCCc3ccccc3)c3ccccc3n2)cc1 | -3.4 | 0.5
C=CCON1C(=O)CN(C(=O)Nc2ccccc2)C1c1ccccc1 (stereo not given) | -3.2 | 0.1
C[C@H]1CN([C@@H](C)CO)C(=O)c2cc(N(C)C)ccc2O[C@@H]1CN(C)Cc1ccc(C(=O)Nc2ccccc2N)cc1 | 16.2 | .
CCc1ccc(NC(=O)CSC2=NN3CCCC(=O)N=C3S2)cc1 | -0.3 | .
O=C(NCCN1CCN(c2cccc(Cl)c2)CC1)Nc1ccc(Cl)cc1 | -0.8 | .
SMILES | BJeLR viab HTS | A1 inh
CC(C)(CCO)NC(=S)NC1CC2C=CC1C2 (stereo not given) | -0.8 | .
O=C(O)c1cc(=O)[nH]c2c(Cl)cccc12 | -0.6 | 0.7
COc1ccc(C(=O)NC2CCCCC2NC(=O)c2ccc(OC)cc2)cc1 (stereo not given) | 1.1 | 1.4
COc1ccc(NC(=O)N(C)C[C@H]2Oc3ccc(NC(=O)CCC(F)(F)F)cc3C(=O)N([C@@H](C)CO)C[C@H]2C)cc1 | -3.7 | 0.3
CC(=O)NC1=NC(=O)/C(=C\c2cccs2)N1C | -0.9 | -0.1
O=C(Sc1ccc(Cl)cc1)c1ccco1 | -5.1 | 5.5
O=[n+]1cc(-c2ccccc2)n([O-])c2c1CCCC2 | -0.6 | -0.3
C[C@@H]1CN([C@@H](C)CO)C(=O)c2cc(NC(=O)C3CCCCC3)ccc2O[C@@H]1CN(C)Cc1ccc(Cl)c(Cl)c1 | -0.4 | -0.5
C[C@@H]1CN([C@@H](C)CO)C(=O)c2cccc(NS(C)(=O)=O)c2O[C@H]1CN(C)S(=O)(=O)c1ccc(Cl)cc1 | 3.2 | .
C[C@@H]1CN([C@H](C)CO)C(=O)c2cccc(NC(=O)c3ccncc3)c2O[C@H]1CN(C)C(=O)Nc1ccc(F)cc1 | 2.0 | .
O=C(Nc1ncnc2sc3c(c12)CCCCC3)c1ccc(F)cc1 | -1.1 | -0.5
CC(C)NC(=O)Nc1cccc2c1O[C@H](CN(C)S(=O)(=O)c1cn(C)cn1)[C@@H](C)CN([C@H](C)CO)C2=O | 19.2 | .
CCOC(=O)Cc1csc(NC(=O)Nc2cccs2)n1 | 5.6 | -3.4
Cc1nc(C(F)(F)F)ccc1C(=O)N1CCN(c2nc3ccc(Cl)cc3s2)CC1 | 8.2 | .
O=C(Oc1cccc2cccnc12)c1cn(-c2ccccc2)nc1-c1ccccc1 | -3.0 | .
Cn1nc(OC(C)(C)C(=O)Oc2ccc(Cl)cc2Cl)cc1C(F)(F)F | 0.5 | -1.0
CC(C)n1c(=S)[nH]c2cc(C(F)(F)F)ccc21 | -1.1 | 0.7
FC(F)(F)c1cc(-c2ccccc2)nc(NCc2cccnc2)n1 | 10.7 | .

Screening data from PubChem BioAssay.
